# Source: PubChem BioAssay (Johns Hopkins Ion Channel Center)
# KCNQ2 inh: KCNQ2 potassium channel inhibitors, primary screen, cell-based, CHO-K1, FluxOR thallium flux, B-score (AID 2156); 20 min; active compounds read low; only compounds with negative scores are shown here; some inactives read as strong as hits; Potassium voltage-gated channel subfamily KQT member 2 (Rattus norvegicus), O88943; B-score at 10 µM; hit rate 1.1% among 310,000;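 active means fluorescence ratio B-score at most minus 3 library SDs, with starting brightness B-score within 2 library SDs, cut at about -5.5 in these data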
# Target sequence (O88943 whole entry, looked up): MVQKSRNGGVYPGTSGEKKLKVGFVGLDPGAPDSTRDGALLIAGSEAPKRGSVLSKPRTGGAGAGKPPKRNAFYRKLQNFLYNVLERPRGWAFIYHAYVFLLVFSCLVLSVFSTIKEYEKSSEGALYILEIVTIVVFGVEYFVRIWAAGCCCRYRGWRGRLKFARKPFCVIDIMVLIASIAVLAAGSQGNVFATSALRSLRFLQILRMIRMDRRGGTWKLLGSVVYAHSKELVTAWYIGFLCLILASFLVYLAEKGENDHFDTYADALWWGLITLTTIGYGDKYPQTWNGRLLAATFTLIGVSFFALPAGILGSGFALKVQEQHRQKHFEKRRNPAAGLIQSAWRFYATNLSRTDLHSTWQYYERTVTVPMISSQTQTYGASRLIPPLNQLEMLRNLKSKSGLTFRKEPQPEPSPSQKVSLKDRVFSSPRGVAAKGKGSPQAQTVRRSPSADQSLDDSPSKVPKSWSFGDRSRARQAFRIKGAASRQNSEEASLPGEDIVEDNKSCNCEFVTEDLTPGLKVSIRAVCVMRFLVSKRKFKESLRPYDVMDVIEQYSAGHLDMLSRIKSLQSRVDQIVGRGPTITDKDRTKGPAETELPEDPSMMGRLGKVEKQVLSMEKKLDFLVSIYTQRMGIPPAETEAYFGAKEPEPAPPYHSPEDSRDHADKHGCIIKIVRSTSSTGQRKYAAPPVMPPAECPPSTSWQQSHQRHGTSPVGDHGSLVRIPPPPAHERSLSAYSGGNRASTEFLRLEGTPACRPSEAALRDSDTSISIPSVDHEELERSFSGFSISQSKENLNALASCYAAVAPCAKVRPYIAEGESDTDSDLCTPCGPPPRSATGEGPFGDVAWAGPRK
# KCNQ2 inh baseline: recorded beside KCNQ2 inh, whose call it bears; B-score; measured here: initial fluorescence intensity artifact check;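 brightness before thallium and not channel activity; 0 = typical well and far values either way flag optical interference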
# An asterisk follows results filed as active; i = inactive.
SMILES	KCNQ2 inh	KCNQ2 inh baseline
CCc1ccc(-c2nc(CSCC(=O)NCCCN3CCCC3=O)c(C)o2)cc1	i	1.2
COc1ccc(-c2cc(C(=O)N(C)Cc3ccc(OC)c(OC)c3OC)c3ccccc3n2)cc1OC	i	-0.6
COc1ccc(N(CC(=O)NC2CCCC2)C(=O)c2ccc(N3CCCCC3)nc2)cc1	i	-1.6
COc1ccc(S(=O)(=O)N(C)CC(=O)Nc2ccc(C(F)(F)F)cc2)cc1Cl	i	0.2
CCn1c(SCc2ccccc2)nc2cc(OC)c(OC)cc2c1=O	i	-1.6
O=C(NCc1cccs1)C(=O)NCC1OCCCN1S(=O)(=O)c1cc(F)ccc1F (stereo not drawn)	i	-1.6
Cc1cccc(N(C(=O)c2csnn2)C(C(=O)NCc2ccccc2)c2cccs2)c1 (stereo not drawn)	i	0.6
CCOC(=O)n1c(=O)n(Cc2ccccc2Cl)c2ccccc21	i	0.09
CC(=O)CCc1ccc(Oc2nc(-c3cccnc3)nc3ccccc23)cc1	i	-1.5
COc1cccc(CN2CCNC(=O)C2CC(=O)NCCn2cccn2)c1OC (stereo not drawn)	i	1.1
COC(=O)N/N=C(/c1ccccc1)C1CCCCC1	i	1.1
CCOC(=O)C1(CC2CCCCO2)CCN(Cc2nccn2-c2ccc(OC)cc2)CC1 (stereo not drawn)	i	-1.2
COc1ccc(CNC(=O)CCc2nnc3ccc(N4CCC5(CC4)OCCO5)nn23)cc1	i	1.5
O=C(CSc1nc2ccccc2c(=O)[nH]1)Nc1nc(-c2ccc(Br)cc2)cs1	i	-0.67
Cc1ccc(-n2c(-c3ccccc3)nnc2-c2cccs2)cc1	i	0.89
CNC(=S)Nc1cc(OC)ccc1OC	i	0.75
CCOC(=O)Cc1cc(-c2ccc(OC)cc2)nc2ccc3ccccc3c12	i	0.41
O=C(c1ccc2c(=O)n(Cc3ccco3)c(=S)[nH]c2c1)N1CCN(Cc2ccccc2)CC1	i	-0.26
COc1ccc(CNc2oc(COc3ccc(Cl)cc3)nc2C#N)cc1	i	0.61
COc1ccc(S(=O)(=O)N2CCCC(C(=O)NCc3ccco3)C2)cc1Cl (stereo not drawn)	i	1.1
Cc1ccc(-c2n[nH]c(=S)n2C)cc1Cl	i	0.18
COc1ccccc1NC(=O)CCC(=O)N1CC(C)Oc2ccc(C)cc21 (stereo not drawn)	i	-1.4
CN(C)S(=O)(=O)c1ccc(C(=O)Nc2nnc(SCc3cccc(F)c3)s2)cc1	i	1.8
Nc1ccccc1SCC(=O)Nc1cccc2ccccc12	i	0.35
COc1ccccc1C(=O)Nc1ccnn1C1CCN(Cc2csc(C(C)=O)c2)CC1	i	0.11
COc1ccc(O)c(-c2[nH]ncc2C(=O)c2cccc(C)c2)c1	i	-0.72
COc1ccccc1NC(=O)CC(c1ccc(F)cc1)c1ccco1 (stereo not drawn)	i	-2.3
CNc1oc(-c2ccc(OCc3ccccc3)cc2)nc1C#N	i	-0.21
COc1ccc(-n2nnnc2SC(C)C(N)=O)cc1 (stereo not drawn)	i	-0.42
Cc1ccc2occ(/C=N/NC(=O)c3ccc(O)cc3)c(=O)c2c1	i	0.34
O=C(Cc1cccc2ccccc12)NCCOc1ccccc1F	i	1.7
Cc1cccc2cc(C#N)c(SCC(=O)NNC(=O)Cc3ccccc3)nc12	i	0.03
CC(C)CC(=O)CN1C(=O)C2(OCCO2)c2ccccc21	i	1.2
CCOc1nc(-c2ccccc2)c2cc(Br)ccc2n1	i	2.3
COCCn1c(SCC(=O)Nc2ccccc2C)nc2c(oc3ccccc32)c1=O	i	-0.02
O=C(CNCC(=O)Nc1ccc(F)c(F)c1F)Nc1ccc(F)c(F)c1F	i	0.01
O=C(N/N=C\c1c(O)ccc2ccccc12)c1cncc(Br)c1	i	7.3
C/C(NC1CCCC1)=C(/C#N)C(N)=O	i	1.3
CC1=C(n2nnc3ccccc32)C(c2ccccc2)C(C#N)=C(N)O1 (stereo not drawn)	i	0.63
O=c1ccc2cc([N+](=O)[O-])c(CCO)cc2o1	i	-0.05

# Single records, from the list above. Screens in order: KCNQ2 inh	KCNQ2 inh baseline
# CC(C)CC(=O)CN1C(=O)C2(OCCO2)c2ccccc21 across the screens: i	1.2
# COc1ccccc1NC(=O)CC(c1ccc(F)cc1)c1ccco1 (stereo not drawn) across the screens: i	-2.3
# O=c1ccc2cc([N+](=O)[O-])c(CCO)cc2o1 across the screens: i	-0.05
# Cc1cccc2cc(C#N)c(SCC(=O)NNC(=O)Cc3ccccc3)nc12 across the screens: i	0.03

# Continuation:
SMILES	KCNQ2 inh	KCNQ2 inh baseline
CCN1CCN(c2nc(Nc3cc(OC)ccc3OC)nc(Nc3cc(OC)ccc3OC)n2)CC1	i	-1.2
CCn1c2ccccc2c2cc(/C=N/NC(=O)c3ccncc3)ccc21	i	0.77
Cn1c(-c2ccccc2)cnc1N	i	0.6
Cn1cc(CN2CCC(C(=O)N3CCCC3)CC2)c(-c2ccccc2F)n1	i	0.5
OCCCN1CCN(CCOc2ccccc2-c2ccccc2)CC1	i	0.05
COc1ccc(/C=C(\C#N)C(=O)Nc2ccccn2)cc1	i	-0.71
CC(=O)c1cccc(NC(=O)[C@@H](NC(N)=O)C(C)C)c1	i	0.76
CCC(=O)Nc1ccc(C(=O)CN2CCC(C)CC2)cc1	i	-4.2
CCCCCCn1c(CN2CCN(Cc3ccccc3)CC2)nc2c1c(=O)n(C)c(=O)n2C	i	0.17
CC1CC(C)CN(CC(=O)NC(c2ccccc2)c2ccccc2)C1 (stereo not drawn)	i	-0.45
COCCNC(=O)CC(=O)N/N=C/c1ccc(C(=O)OC)cc1	i	1.6
CCC(C)(C(=O)Nc1ccccc1C)N(C(=O)CNC(C)=O)c1ccc(C)cc1 (stereo not drawn)	i	-0.5
CC(=O)N1c2ccc(S(=O)(=O)N3CCCC(C(=O)NCc4ccccc4Cl)C3)cc2CC1C (stereo not drawn)	-6.2*	0.17*
C=CCn1c2ccccc2c2nnc(SC(CC)C(=O)Nc3nc(C)c(C(=O)OCC)s3)nc21 (stereo not drawn)	i	-2.1
O=C(Nc1nccs1)c1ccc(-c2ccccc2[N+](=O)[O-])o1	i	0.43
Clc1ccc(Sc2oc(/C=N/n3cnnc3)cc2Br)cc1	i	1.7
CCOC(=O)c1c(C=O)c2sc(C)cc2n1C	i	-0.01
COc1ccc2cc(C(=O)C3CCCN(C(=O)c4cnn(C(C)C)c4)C3)ccc2c1 (stereo not drawn)	i	-1.4
Cc1ccc(-n2c(C(C)C)nc3oc4ccccc4c(=O)c3c2=O)cc1	i	-0.12
O=C(CCCOc1ccc(Cl)cc1Cl)N/N=C\C1CCCCC1	i	0.67

# Ordered by molar mass (rising): part of the list above
SMILES	KCNQ2 inh	KCNQ2 inh baseline
CCOC(=O)c1c(C=O)c2sc(C)cc2n1C	i	-0.01
O=C(Nc1nccs1)c1ccc(-c2ccccc2[N+](=O)[O-])o1	i	0.43
CC1CC(C)CN(CC(=O)NC(c2ccccc2)c2ccccc2)C1 (stereo not drawn)	i	-0.45
Cc1ccc(-n2c(C(C)C)nc3oc4ccccc4c(=O)c3c2=O)cc1	i	-0.12
CC(=O)N1c2ccc(S(=O)(=O)N3CCCC(C(=O)NCc4ccccc4Cl)C3)cc2CC1C (stereo not drawn)	-6.2*	0.17*
C=CCn1c2ccccc2c2nnc(SC(CC)C(=O)Nc3nc(C)c(C(=O)OCC)s3)nc21 (stereo not drawn)	i	-2.1

# Next entries follow:
# Under each structure – KCNQ2 inh	KCNQ2 inh baseline
> O=C(O)CCCN1C(=O)c2cccc3cccc(c23)C1=O
→ i	-0.45
> Cc1ccc2c(c1)c(N=Nc1ccc([N+](=O)[O-])cc1)c(O)n2C
→ i	0.37
> CCC(CC)C(=O)Nc1ccncc1
→ i	-0.6
> CCN(CC)C(=O)Cn1cc(S(=O)(=O)CC(=O)Nc2ccccc2F)c2ccccc21
→ i	0.73
> COc1ccc(S(=O)(=O)Nc2ccc(S(=O)(=O)N3CCCCC3)cc2)cc1
→ i	1.9
> CNC(=O)/C(=C\C=C\c1ccccc1)NC(=O)c1ccc([N+](=O)[O-])cc1
→ i	1.2
> Cc1nn(-c2ccccc2)c2c1C1(C(=O)Nc3ccccc31)N1C(=N2)Sc2ccccc21 (stereo not drawn)
→ i	-1.5
> CC1(C)Cc2c(ccc3ccccc23)-c2nnc(-c3cccnc3)n21
→ i	0.88
> CCOC(=O)c1ccccc1NC(=O)c1cn(-c2ccc(OC)cc2)c(=O)c2ccccc12
→ i	-0.8
> CC(=O)Nc1ccc(NC(=O)C(C)OC(=O)c2ccccc2Sc2ccccc2C#N)cc1 (stereo not drawn)
→ i	-0.88
> CNC(=S)NNC(=O)c1cccn(Cc2ccc(Cl)c(Cl)c2)c1=O
→ i	-0.4
> CSc1cccc(-n2c(C)cc(C(N)=O)c2C)c1
→ i	-1.4
> O=C(NCc1ccco1)C1CC(c2ccccc2O)=NO1 (stereo not drawn)
→ i	-0.2
> N#CC(c1ccc(F)cc1)c1ccc(C(=O)c2ccc(F)cc2)cc1 (stereo not drawn)
→ i	1.4
> COc1ccccc1/C=N/NC(=O)CC(=O)NCCc1ccccc1
→ i	1.1
> C=CCNc1nc2ccccc2nc1NS(=O)(=O)c1ccc(Br)cc1
→ i	-1.5
> Oc1ccc(/C=N/Nc2cc(N3CCCC3)nc(N3CCCC3)n2)cc1
→ i	1.9
> COc1ccccc1C(=O)NC(=S)Nc1ccc(S(=O)(=O)N2CCN(C)CC2)cc1
→ i	1.8
> COc1ccc(OC)c(C(C(=O)NCc2ccco2)N(C(=O)Cn2nnc3ccccc32)C2CC2)c1 (stereo not drawn)
→ i	-1.3
> Cc1ccc(O)c(C(=O)c2cc(C#N)c(=O)n(C(C)c3ccccc3)c2)c1 (stereo not drawn)
→ i	-0.58
> CC(=O)NCCc1nc2ccccc2n1CCOc1ccccc1
→ i	-0.59
> Oc1ccccc1/C=N/Nc1cccc2cccnc12
→ i	2
> COC(=O)[C@H](Cc1ccccc1)N(C)S(=O)(=O)c1cccc(S(=O)(=O)N(C)[C@@H](Cc2ccccc2)C(=O)OC)c1
→ i	-0.05
> COc1ccc(CNC(=O)CCS(=O)(=O)c2ccc(Br)cc2)cc1
→ i	0.47
> O=c1c2ccccc2oc2ccc(-c3ccc4[nH]ccc4c3)cc12
→ i	-0.61
> CC(C)C[C@H](NC(=O)c1nc[nH]c1C(=O)NCC(=O)OC(C)(C)C)C(=O)OCc1ccccc1
→ i	1.1
> C[C@H](c1ccccc1)n1nnc(COCc2ccccc2)c1C#CCOCc1ccccc1
→ i	0.02
> O=C(c1ccc(OC2CCN(Cc3cccc(F)c3)CC2)cc1)N1CCCCC1
→ i	1.4
> COc1ccc(N2CCN(S(=O)(=O)CCNC(=O)C3CC(=O)N(c4ccccc4)C3)CC2)cc1 (stereo not drawn)
→ i	-0.99
> O=C(O)c1ccc(Oc2ccccc2)o1
→ i	0.77
> Cc1ccc(NC(=O)CN2CCC3(O)CCCCC3C2c2ccc3c(c2)OCO3)c(C)c1 (stereo not drawn)
→ i	0.96
> Cc1ccc(-c2nc3c4ccccc4ccn3c2CN2CCCCC2)cc1
→ i	-0.03
> Cc1c(-c2ccccc2)[n+](=O)c(-c2ccc(Br)cc2)c(C)n1[O-]
→ i	1.2
> Cc1ccccc1NC(=O)c1c(C)[nH]c(=S)c(C#N)c1-c1ccc(Cl)cc1
→ i	-0.03
> CN(C)c1ccc(/C=C2\C(=N)N3N=C(CC(=O)N4CCCCC4)SC3=NC2=O)cc1
→ i	6.4
> CCOc1cc(CO)ccc1OCC(=O)N1CCCCC1
→ i	-0.08
> O=C(Nc1cccc2ccccc12)c1ccccc1NS(=O)(=O)c1cccc2cccnc12
→ i	-0.7
> O=C(N/C(=C/c1ccc(Br)cc1)C(=O)N1CCOCC1)c1cccs1
→ i	1.1
> COc1cc(C(=O)N2CCN(Cc3ccccc3C(F)(F)F)CC2)cc(OC)c1OC
→ i	-1.2
> CC(C)CCNC(=O)NC(=O)COc1ccccc1C#N
→ i	-1.3
> CCOc1ccc(CN2CCNC(=O)C2CC(=O)NC2CCOCC2)cc1 (stereo not drawn)
→ i	-1.7
> CN(C)CCCN1C(=O)C(=O)/C(=C(/O)c2ccncc2)C1c1ccccc1 (stereo not drawn)
→ i	-0.27
> Cc1ccc(NC(=O)c2ccc3ccccc3n2)cc1S(=O)(=O)N(C)C
→ i	-0.58
> CCN1C(=O)[C@H]2[C@@H](c3ccc(OC)cc3)N3C(=O)CN(Cc4ccccc4)C(=O)[C@@]3(C)[C@H]2C1=O
→ i	0.59
> Cc1cc(C(=O)N2CCCC(N3CCN(c4ccc(F)cc4)CC3)C2)no1 (stereo not drawn)
→ i	1.5
> COC(c1ccccc1)c1nnc(CCC(=O)N(C)CCCC2CCCC2)o1 (stereo not drawn)
→ i	1.7
> N=C(N)SCc1cn(-c2ccccc2)nc1-c1ccc(Br)cc1
→ -12*	-0.11*
> Cc1ccc(NC(=O)CCNS(=O)(=O)c2ccc3c(c2)CCC(=O)N3)cc1
→ i	-1
> CCN(CC)S(=O)(=O)c1cccc(C(=O)N/N=C/c2ccccn2)c1
→ i	2.1
> CCc1ccc(NC(=O)CSc2nc3n[nH]c(C)c3c(=N)n2-c2cccc(OC)c2)cc1
→ i	-1.6
> O=C(CCl)N1c2ccccc2CCc2ccccc21
→ i	0.36
> Cn1cc(S(=O)(=O)N2CCCC2)cc1C(=O)NCc1ccccc1Cl
→ i	0.16
> O=S(=O)(Nc1ccc(O)c(CN2CCCCC2)c1)c1ccccc1
→ i	-1.4
> Nc1nnnn1/N=C/c1cc(Br)ccc1O
→ i	-1.1
> O=C(COC(=O)CCN=C1NS(=O)(=O)c2ccccc21)NNC(=O)c1ccccc1
→ i	1.4
> Cc1ccc2nc(-c3cccnc3)cc(C(=O)Nc3ccccc3[N+](=O)[O-])c2c1
→ i	-2.5
> O=C(CSc1nnc(-c2cccnc2)o1)Nc1ccccc1F
→ i	0.07

# The list is partial; rates above refer to the full screens.
